HPGD inh – HPGD (human) dehydrogenase inhibition; 4.3% of 150,000 active; P15428; purified HPGD, NADH fluorescence kinetic, PGE2 substrate; Potency, µM, for inactives: at the top dose activity change, negative = inhibition, hits mostly inhibitors; active = well fitted inhibition curve with a large enough effect (not every such curve was filed as active); inconclusive = small, poorly fitted or top-dose-only effect, or another doubt; inactive = no such curve, though single readings can be large or run the other way;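 also: top concentration of the series not given in the record; plate controls included wells without enzyme; inactives centre near -10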
Target sequence (P15428 whole entry, looked up): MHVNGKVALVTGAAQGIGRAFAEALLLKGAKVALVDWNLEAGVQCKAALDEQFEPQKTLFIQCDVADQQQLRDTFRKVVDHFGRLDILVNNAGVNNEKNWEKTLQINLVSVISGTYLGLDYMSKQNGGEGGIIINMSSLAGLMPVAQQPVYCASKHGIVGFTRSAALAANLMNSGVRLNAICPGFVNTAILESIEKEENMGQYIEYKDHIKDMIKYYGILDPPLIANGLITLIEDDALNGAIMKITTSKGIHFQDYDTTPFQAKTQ
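NADH formation kinetics: reaction with 30 uM PGE2 and 1 mM NAD+ (final), 20 nM enzyme, Tris-HCl pH 8 with Tween 20, after 15 min compound preincubation at room temperature. Fluorescence change, last versus first of five reads.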
Numbers without * were called inactive; ? = inconclusive; & = joins results of further samples. % is scaled to controls: 0 for no effect and ±100 for the full control effect; potency is read from the fitted curve at half-maximal effect. These rows are one share of the data, so the mix of outcomes need not match the whole.

SMILES | HPGD inh
CCCOP(=O)(OCCC)c1c([N+](=O)[O-])cc(C(F)(F)F)cc1[N+](=O)[O-] | -14.8%
CCOC(=O)c1c(NC(=S)Nc2ccc(Cl)cc2)sc(C)c1C | -5.8%
Cc1ccc(-c2cc(C(F)(F)F)nc(SCC(=O)c3cccc([N+](=O)[O-])c3)n2)cc1 | -19.6%
CN(C)c1ccc(NC(=O)Oc2ccccc2)cc1 | -3.8%
CCOC(=O)N1CCN(C(=O)c2ccccc2NC(=O)c2ccc(Br)cc2)CC1 | -6.6%
O=C(COc1ccccc1)N1CCN(C(=O)c2ccco2)CC1 | -0.3%
Cc1cc(S(=O)(=O)NCC(C)C)ccc1OCC(=O)NCc1ccccn1 | -6.9%
C=C(C)C1CC=C(C)/C(=N/NC(=O)COc2ccccc2C)C1 (stereo not given) | -12.1%
Cc1cc2nc(SCC(=O)Nc3nonc3C)c3c(c2cc1C)CCCC3 | -19.4%
CCOC(=O)/C(C#N)=C(/C)c1ccc(OC)cc1 | -8.9%
OCCNc1nc2ccccc2n1CCN1CCCCC1 | -0.9%
Cc1noc(C)c1S(=O)(=O)NC1CCCc2ccccc21 (stereo not given) | -10.9%
Cc1ccc(NC(=O)CC(O)(C(F)(F)F)C(F)(F)F)cc1 | -9.1%
c1ccc(-c2cnc(CSc3ncnc4sccc34)o2)cc1 | 3.16µM*
COc1ccc(NC(=O)CN2CCN(CC(=O)Nc3ccccc3Cl)CC2)cc1Cl | -11.7%
CSc1ccccc1N=Cc1nc(-c2ccccc2)oc1O | ?
COc1ccc(C2CC(c3ccccc3)=NN2C(=O)COC(=O)c2cccc(S(=O)(=O)N3CCOCC3)c2)cc1 (stereo not given) | -26.1%
CCOC(=O)C1C(=O)CC(C)(O)C(C(=O)OCC)C1c1ccc(OCC)cc1 (stereo not given) | -0.6%
NC(=O)Cn1nnc(-c2ccc(C(F)(F)F)cc2)n1 | -9.7%
CCOC(=O)C(NC(=O)NCc1ccc(F)cc1)(OCC)C(F)(F)F (stereo not given) | -1.5%
NNC(=O)CNC(c1ccccc1)c1cc(Br)ccc1NC(=O)c1ccccc1Br (stereo not given) | -5.0%
Cc1ccc(-c2cc(C(F)F)nc(NCC3CCCO3)n2)cc1 (stereo not given) | ?
CCN1CCN(S(=O)(=O)c2ccc(Br)s2)CC1 | -1.6%
COc1ccc2nc(-c3ccc(N)cc3)[nH]c2c1 | ?
O=C(NCCc1ccccc1)N1c2ccccc2Sc2ccccc21 | -12.5%
Carrying on.
SMILES | HPGD inh
Nc1ncnc2nc(-c3ccc(N4CCOCC4)nc3)cc(-c3cccc(Br)c3)c12 | ?
COC(/C=C/Nc1ccc(C)c(C)c1)=C(C#N)C#N | -11.2%
Cc1ccc2c(c1)c(C)c(C)n2CC(O)Cn1nnc2ccccc21 (stereo not given) | -18.8%
O=C(Nc1ccccc1NC(=O)c1c(F)c(F)c(F)c(F)c1F)c1c(F)c(F)c(F)c(F)c1F | 0.6%
CCN(CC)S(=O)(=O)c1ccc(-c2nnc(SCC(=O)Nc3nnc(C)s3)n2CC)cc1 | -3.5%
Cc1ccc(OC(C)c2nnc(N)s2)cc1Cl (stereo not given) | -9.4%
CCCCCC(=O)NC(NC(=S)Nc1ccc(S(N)(=O)=O)cc1)C(Cl)(Cl)Cl (stereo not given) | -8.9%
O=c1c2ccccc2ncn1-c1ccc(Cl)c(Cl)c1 | 2.3%
O=C1SCC(c2ccccc2)=NN1Cc1ccccc1 | -20.7%
Cc1cc(C)c(S(=O)(=O)Nc2ccc3c4c(cccc24)CC3)c(C)c1 | -13.4%
Clc1ccc(Cc2noc(CN3CCN(c4ccccc4)CC3)n2)c(Cl)c1 | -11.4%
CCN(C(=O)c1ccnn1C)c1ccccc1 | -4.8%
CCOc1cc(N(CC)CC)ccc1/C=C(/C#N)c1nc2ccccc2[nH]1 | -9.6%
COc1ccccc1NC(=O)CNS(=O)(=O)c1ccccc1 | -5.9%
Cc1ccc(C(C)n2cc(C(=O)NCc3cccnc3)nn2)cc1 (stereo not given) | -4.7%
Cc1cc(C)nc(N(C#N)CC(=O)N2CCC(C(N)=O)CC2)n1 | -15.2%
COc1ccccc1N1CCN(CC(=O)Nc2ccc(Cl)c(C(F)(F)F)c2)CC1 | -23.6%
c1ccc2cc3[nH]c(CN4CCOCC4)nc3cc2c1 | ?
CCC(=O)N1CCc2cc(S(=O)(=O)Nc3ccc4c(c3)OCCO4)ccc21 | -1.6%
Cn1cc(C(=O)Nc2ccc3c(c2)CCC3)cn1 | -8.8%
COC(=O)c1ccc(C2Nc3ccc(/C(C)=N/NC(=O)C(OC)c4ccccc4)cc3C3C=CCC32)cc1 (stereo not given) | ?
COc1ccc([N+](=O)[O-])cc1NC(=O)C(C)Sc1nc(-c2ccccc2)cs1 (stereo not given) | -11.9%
COCCNC(=O)c1c(N)sc2c1CCCC2 | ?
CCC[C@@H]1O[C@@H]2C[C@@H]3[C@H]4CCC5=CC(=O)C=C[C@@]5(C)[C@H]4[C@H](O)C[C@@]3(C)[C@@]2(C(=O)CO)O1 | -0.8%
COc1ccc(S(=O)(=O)Cc2ccccc2)cc1N | -7.2%
Continuation.
SMILES | HPGD inh
O=C(N/N=C/c1ccccc1O)c1cc(-c2ccccc2)n[nH]1 | -16.7%
COc1ccc2nc(SCC(=O)NN)cc(C)c2c1 | -19.3%
CCOC(=O)c1cnc2c(-c3ccccc3)c(C)nn2c1N | -22.2%
O=C(OC1CCOC1=O)c1cccc(S(=O)(=O)Nc2cccc(Cl)c2)c1 (stereo not given) | -3.8%
CCN1CCN(Cc2cc(=O)oc3cc(C)cc(C)c23)CC1 | -7.6%
N#Cc1cnn(Cc2ccccc2)c1N | -0.8%
CSc1ccccc1C(=O)NCCc1ccc(S(=O)(=O)N2CCCCC2)cc1 | -9.0%
O=C(Cn1ncc2c(=O)oc3ccccc3c21)N1CCN(c2ccccn2)CC1 | -26.5%
COc1ccccc1C(=O)Nc1ccc(C)cc1C(=O)c1ccccc1 | -10.1%
O=c1c2ccccc2c(-c2ccccc2)nn1Cc1ccccc1 | -16.5%
CCOCCCNC(=O)C1CCN(S(=O)(=O)c2ccc(C)cc2)CC1 | -15.2%
CN(C)C(=O)N1CCC(C(=O)NCc2ccc(F)cc2Cl)CC1 | -1.3%
NCCCSC1=NCCCN1 | 3.8%
CSc1ncnc2c1ncn2C1OC(CO)C(O)C1O (stereo not given) | -14.0%
NCCCCCc1nnc(SCc2ccccc2Cl)o1 | 1.9%
CCNc1nc(CN2CCCCC2)nc2scc(-c3ccccc3)c12 | -7.7%
CSc1nc(N)c2ncn([C@H]3O[C@H](COP(=O)(O)OP(=O)(O)O)[C@@H](O)[C@@H]3O)c2n1 | -4.6%
COCCN(C(=O)Nc1ccccc1)c1ccccc1 | -6.9%
COc1ccc(CCC(=O)N2CC(C)OC(C)C2)cc1 (stereo not given) | -13.1%
Cc1ccc(S(=O)(=O)OC2CCN(C)CC2)cc1 | 0.5%
Cc1ccccc1OCC(O)Cn1c2ccccc2c2ccccc21 (stereo not given) | ?
C/C(=N/Nc1ccc2ccccc2n1)c1ccccc1O | -9.0%
C=CCn1c(N)c(C(=O)Nc2ccc(C)cc2)sc1=S | -3.9%
COc1ccc(-c2cn3ccsc3n2)cc1 | -19.9%
CSc1ccc(-c2cc(=O)c3ccccc3o2)cc1 | ?
(list continues)
SMILES | HPGD inh
CC(=O)c1c(COC(=O)c2cccnc2)nc2ccccc2[n+]1[O-] | -8.5%
CC1Cc2ccccc2N1C(=O)c1ccc(N2CCCCC2)c([N+](=O)[O-])c1 (stereo not given) | -19.2%
CC(=O)c1cc(F)c(N2CCCC2)cc1C | -26.4%
C=CCSC1=C(C#N)C2(CCCCC2)C(C#N)C(=O)N1 (stereo not given) | -22.1%
CS(=O)(=O)N(CC(=O)N1CCCCCC1)c1cccc(Br)c1 | -6.0%
Cc1cccn2c(=O)c(/C=C(\C#N)C(=O)NC3CCS(=O)(=O)C3)c(N3CCC(C)CC3)nc12 (stereo not given) | -22.6%
CCC(=O)[C@@]1(C)[C@H](C)C[C@@H]2[C@@H]3CCC4=CC(=O)C=C[C@@]4(C)[C@H]3[C@H](O)C[C@]21C | -2.6%
CCOc1ccc(-n2c(SCC(=O)Nc3nccs3)nc3c(c2=O)SCC3)cc1 | -19.8%
CCOCCCNC(=O)C(C)NS(=O)(=O)c1ccc(C)cc1 (stereo not given) | ?
Cc1ccnc(NC(=S)NC(=O)/C=C/c2ccc(Cl)cc2)c1 | -4.8%
Cc1ccc(S(=O)(=O)N(C)C)cc1NC(=S)NC(C)CCCC(C)C (stereo not given) | -11.5%
Cc1cc(Cl)ccc1OCC(=O)OC(C)C(=O)NC(N)=O (stereo not given) | -19.8%
CCN(CC)S(=O)(=O)c1cccc(NC(=O)C2SC(=Nc3ccc(C)cc3C)C(C(=O)NC(C)COC)=C2N)c1 (stereo not given) | -29.5%
COCCn1c(=O)[nH]c2cc(C(=O)NCCCN3CCN(c4ccc(F)cc4)CC3)ccc2c1=O | -25.8%
COc1ccc(C2/C=C\CC(NC(=O)OCC3c4ccccc4-c4ccccc43)CC(=O)N2Cc2cccc(F)c2)cc1 (stereo not given) | -11.3%
Cn1c(=O)[nH]c(=O)c2[nH]cnc21 | -13.2%
COc1ccc(-n2c(C)cc(C(=O)Cn3c(NCCO)nc4ccccc43)c2C)cc1 | -8.3%
CC1CCN(CCCNC(=O)CCCNC(=O)Cn2cnc3sc4c(c3c2=O)CCCC4)CC1 | -9.1%
CCOC(=O)NC1(Nc2ccc(C)cc2)Oc2ccccc2O1 | ?
Cc1cccc(OCC2=N/C(=C\N(C)C)C(=O)O2)c1 | -22.9%
CCOC(=O)CSc1nsc(SCC(=O)OCC)c1C#N | -24.1%
COc1ncnc2c1oc1nc(C(C)C)c3c(c12)CC(C)(C)OC3 | -5.6%
OC(CN1CCC(Cc2ccc(F)cc2)CC1)c1ccc(Cl)cc1 (stereo not given) | 3.0%&-5.7%
Cc1c(O)nc(SCC(=O)Nc2ccc3c4c(cccc24)CC3)n(-c2ccc(F)cc2)c1=O | -6.3%
O=C1N/C(=N\N=C\c2ccc3ncccc3c2)SC1Cc1ccc(SC(F)F)cc1 (stereo not given) | -8.6%
Additional records follow:
SMILES | HPGD inh
CS(=O)(=O)Nc1nnc(Cc2ccccc2)s1 | -24.2%
O=C(N/C(C(=O)N1CCOCC1)=C(\Sc1ncccn1)c1ccccc1)c1ccccc1 | -13.9%
COc1ccc(/C(C)=C(\C#N)C(=O)OC(C)C)cc1OC | ?
CN1CCN(c2cc(-c3ccccc3C(F)(F)F)ncn2)CC1 | -3.1%
Cc1cccc(Nc2nc(NC(C)C)nc(Oc3ccc(=O)n(C)n3)n2)c1 | -14.1%
O=C(Cn1cnc2c(nnn2Cc2ccccc2)c1=O)NCc1ccco1 | 14.1µM*
O=C1OCC(CO)(CO)N=C1NNc1cc(Cl)ccc1Cl | ?
CCc1nnc(NC(=O)CSc2nnc(Cc3ccccc3)o2)s1 | -21.4%
CCc1nnc(NC(=O)CCC(=O)O)s1 | -9.5%
CCn1nccc1C(=O)Nc1ccc(Cl)cn1 | -12.2%
S=C(Nc1ccccc1)Nc1nccs1 | -29.6%
COc1ccc(NC(=O)CN2CCC(C(N)=O)(N3CCCCC3)CC2)cc1 | 1.5%
O=C(CCC(=O)N(Cc1ccco1)C(C(=O)NC1CCCC1)c1ccncc1)Nc1cccnc1 (stereo not given) | -11.2%
O=C(O)C1C2CCC(C2)C1C(=O)NCc1ccco1 (stereo not given) | -14.6%
O=c1ccnc(SCn2nnc3ccccc3c2=O)[nH]1 | -16.6%
O=c1[nH]c(SCc2ccc(F)cc2)nc2c1cnn2-c1ccc(F)cc1 | -8.8%
CCOC(=O)C1CCN(Cc2nc3ccccc3c(=O)n2-c2ccc(F)cc2)CC1 | -13.5%
Cc1nc(NC(=O)c2ccccc2)sc1-c1csc(NCc2ccco2)n1 | -21.6%
CCOC(=O)C1=C(C)NC(=O)NC1c1cc(C)sc1C (stereo not given) | -2.4%
COc1ccc2[nH]c(=O)c(CN(Cc3cccs3)C(=S)Nc3cccc(C)c3)cc2c1 | ?
COC(=O)C1=C(C)NC(=O)CC1c1ccccc1 (stereo not given) | -19.3%
CN(C)C(=O)Cn1c(SCC(=O)N2CCCc3ccccc32)nc2ccccc21 | -7.8%
O=C1CN(C(=O)COC(=O)Cc2ccsc2)c2ccccc2N1 | -7.9%
CC(C)=CCOc1cc2oc(=O)ccc2cc1O | ?
Cc1ccsc1-c1nc(CSCC(=O)NCc2ccc3c(c2)OCO3)c(C)o1 | ?
COc1cc2ccccc2cc1C(=O)Nc1ccc(N2CCN(C)CC2)cc1 | -8.0%
O=C(NCCNC(=O)C1CC2CCC1C2)C1CC2CCC1C2 (stereo not given) | -6.9%
O=C(O)C1CC=CCC1C(=O)Nc1ccccc1C(=O)N1CCN(c2ccc(F)cc2)CC1 (stereo not given) | -3.5%
O=C(Cc1ccccc1)Nc1c2c(nn1-c1cccc(Cl)c1)CS(=O)(=O)C2 | 2.6%

Assay outcomes: PubChem BioAssay, National Center for Advancing Translational Sciences (NCATS)
